High-throughput results deposited in PubChem BioAssay by National Center for Advancing Translational Sciences (NCATS).
MARV entry inh = inhibitors of Marburg virus binding or cell entry | Marburg virus pseudotyped entry inhibition, cell reporter; control for the full effect not named in the record; about a third of the inactives were read at about 46 µM | Potency, µM (top dose mostly 37.8 µM), without a hit: at the top dose activity change, negative = inhibition, hits mostly inhibitors | hit rate 1.8% among 300,000 | AID 540276; active = well fitted inhibition curve with a large enough effect; inconclusive = small, poorly fitted or top-dose-only effect, or effect the other way; inactive = flat fitted curve, though single readings scatter; tested in HEK293 cells; about a fifth of its hits are not listed in these tables; further: on the % scale 0 is the no-effect control and ±100 the full control effect; luciferase read-out
NS1 function inh = blocks influenza NS1 protein function; S. cerevisiae slowed by influenza A NS1, growth recovery by OD600; Potency, µM (top dose mostly 46.1 µM), inactives show at the top dose activity, positive = more growth; hit rate 0.4% among 270,000; AID 2326; further: actives are rising curves; nearly all actives have a fitted effect of over 50% in size
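In this qHTS, NS1 from influenza A is expressed in budding yeast, where it slows growth. Cells are switched from glucose to 2% galactose medium (pH 6.0, -URA), treated with compound, and growth recovery is read at OD600.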
SARS PLP yeast = SARS-CoV PLP inhibition in yeast | S. cerevisiae expressing SARS-CoV PLpro, growth rescue; control for the full effect not named in the record | Potency, µM (series often up to 32.9 µM), for inactives: at the highest dose activity, positive = growth rescue | hit rate 0.19% among 330,000; further: 0% is about no effect; nearly all actives have a fitted effect of over 55% in size; growth read by luminescence after 48 h
Cruzain Triton = cruzain (T. cruzi) inhibition with detergent. P25779. purified cruzain, Z-FR-AMC fluorescence, 0.01% Triton. Potency, µM, for the others: max response, negative = inhibition, hits mostly inhibitors. hit rate 0.43% among 200,000; active means well fitted curve in the direction sought with a large enough effect; inconclusive means small, poorly fitted or top-dose-only effect, or another doubt; inactive means no such curve, though single readings can be large; an effect the other way counts as inactive or inconclusive;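 further: plate controls were neutral wells for no effect and buffer without enzyme for full effect; nearly all actives have a fitted effect of over 40% in size; top concentration of the series not given in the record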
Target sequence (P25779 123-467 limits assumed): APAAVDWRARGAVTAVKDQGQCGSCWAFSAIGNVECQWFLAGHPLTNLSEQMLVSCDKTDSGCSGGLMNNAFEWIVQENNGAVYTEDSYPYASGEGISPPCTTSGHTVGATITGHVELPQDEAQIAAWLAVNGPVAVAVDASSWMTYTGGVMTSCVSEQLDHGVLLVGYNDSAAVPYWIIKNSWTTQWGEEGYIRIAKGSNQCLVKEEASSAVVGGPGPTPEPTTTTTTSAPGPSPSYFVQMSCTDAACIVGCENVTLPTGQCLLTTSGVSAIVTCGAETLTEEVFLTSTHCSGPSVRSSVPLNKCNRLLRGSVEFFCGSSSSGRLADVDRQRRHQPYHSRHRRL
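Steps: dispense cruzain (1.5 nM final) in acetate buffer pH 5.5 with DTT and 0.01% Triton X-100; pin-transfer compounds; incubate 15 min RT; add Z-FR-AMC (2 uM final); read fluorescence every 30 s, using the 60 s intensity change.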
RE007 growth inh = less growth of the S. pombe RE007 Vpr strain. hit rate 0.21% among 360,000. AID 651644. S. pombe RE007 Vpr strain, BacTiter-Glo ATP luminescence, 24 h; control for the full effect not named in the record. Potency, µM (top dose mostly 92.2 µM), for the others: top-dose activity change, negative = less growth; active = well fitted falling curve with a large enough effect; inconclusive = small, poorly fitted or top-dose-only effect; inactive = no such curve, though single readings can be large or run the other way;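 further: on the % scale 0 is the no-effect control and ±100 the full control effect; nearly all actives have a fitted effect of over 50% in size; the assay follows cell death caused by Vpr and the record does not say whether a fall means rescue or toxicity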
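Fission yeast RE007 carrying one integrated HIV-1 vpr copy, seeded at OD 0.01 in PMG+AL medium with 23 nL pinned compound. Grown 24 h at 30 degrees; viability read by BacTiter-Glo luminescence after 5 min.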
Cruzain inh noDet = blocks cruzain activity in detergent-free assay. P25779. purified cruzain, Z-FR-AMC fluorescence, no detergent. Potency, µM, without a hit: max response, negative = inhibition, usual class: inhibitors. hit rate 2.3% among 200,000; active means well fitted curve in the direction sought with a large enough effect; inconclusive means small, poorly fitted or top-dose-only effect, or another doubt; inactive means no such curve, though single readings can be large; an effect the other way counts as inactive or inconclusive;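 further: plate controls were enzyme without inhibitor for no effect and buffer without enzyme for full effect; nearly all actives have a fitted effect of over 40% in size; top concentration of the series not given in the record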
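Detergent-free condition (0.00005% Triton X-100) in acetate buffer pH 5.5 with DTT. 1.5 nM enzyme and compound were pre-mixed 15 min, then 2 uM Z-FR-AMC substrate added; reaction progress from fluorescence change between first and third reads (60 s).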
StopGo reporter = FMDV 2A StopGo reporter, luciferase signal; Potency, µM (doses to about 57.9 µM), inactives show at the highest dose signal change, negative = less light; hit rate 1.2% among 410,000; human cells with a luciferase reporter of 2A StopGo recoding; control for the full effect not named in the record; active = well fitted falling curve with a large enough effect; inconclusive = small, poorly fitted or top-dose-only effect; inactive = no such curve, though single readings can be large or run the other way; tested in HEK293T cells; further: on the % scale 0 is the no-effect control and ±100 the full control effect; nearly all actives have a fitted effect of over 45% in size; luciferase light after 4 h
Lassa entry inh = blocks Lassa virus binding to or entry into cells; Lassa virus pseudotype entry inhibition, cell reporter; control for the full effect not named in the record; Potency, µM (highest dose often 37.9 µM), without a hit: top-dose activity change, negative = inhibition, most hits filed as inhibitors; hit rate 1.2% among 300,000; AID 540256; active means well fitted inhibition curve with a large enough effect; inconclusive means small, poorly fitted or top-dose-only effect, or effect the other way; inactive means flat fitted curve, though single readings scatter; tested in HEK293 cells; further: on the % scale 0 is the no-effect control and ±100 the full control effect; nearly all actives have a fitted effect of over 50% in size; luciferase read-out
Numbers without * were called inactive; [ ] = dose if it differs, or a comment. Unless noted, the call rests on the fitted dose curve; in most records, active means well fitted rising curve with a large enough effect; inconclusive means small, poorly fitted or top-dose-only effect; inactive means no such curve, though single readings can be large or run the other way. Potency means the concentration at half of the fitted maximal effect.

What do the screens show for `COc1cccc(Nc2ccc(C(=O)O)cc2N)c1`?
MARV entry inh: inconclusive; NS1 function inh: 6%; SARS PLP yeast: -2%; RE007 growth inh: 7%; StopGo reporter: 32%[activator]; Lassa entry inh: 14%

What do the screens show for `COc1cc(OC)c(NC(=O)Cc2c(C(=O)O)c(C)cn2C)cc1Cl`?
Cruzain Triton: 1.4%; Cruzain inh noDet: 2%; StopGo reporter: -10%; Lassa entry inh: 10%[46.1 µM]

How did CC1=NN(c2nc3ccccc3s2)C(O)(C(F)(F)F)C1 (configuration not stated) do in these assays?
NS1 function inh: -1%; SARS PLP yeast: -1%; RE007 growth inh: -7%; StopGo reporter: 34%[activator]

How did CCSc1nnc(NC(=O)CC(C)C)s1 do in these assays?
NS1 function inh: 9%; SARS PLP yeast: 1%; RE007 growth inh: 0%; StopGo reporter: 27%

Results for COC(=O)c1cc(NC(=O)CCc2c(C)nc3nc(C)nn3c2C)cc(C(=O)OC)c1 ?
MARV entry inh: 16%[46.1 µM]; Cruzain Triton: 0.6%; Cruzain inh noDet: -9%; StopGo reporter: -3%; Lassa entry inh: 19%[46.1 µM]

Results for Cc1cccc(C)c1NC(=O)CSCc1cnn(-c2ccccc2)c1-n1cccc1 ?
MARV entry inh: inconclusive; Cruzain Triton: -5.5%; Cruzain inh noDet: -26%; StopGo reporter: -27%; Lassa entry inh: -13%[46.1 µM]

Results for CN(CC(=O)N(CCO)Cc1ccccc1)S(=O)(=O)c1ccc2c(c1)c(=O)n(C)c(=O)n2C ?
NS1 function inh: 7%; SARS PLP yeast: 0%; RE007 growth inh: -5%; StopGo reporter: -2%

Results for CSc1cccc(NC(=O)CCn2c(=O)c3cccn3c3cccnc32)c1 ?
MARV entry inh: -1%[46.1 µM]; NS1 function inh: 9%; SARS PLP yeast: 0%; RE007 growth inh: -9%; StopGo reporter: -17%; Lassa entry inh: -11%[46.1 µM]

What do the screens show for `Cc1c(Cl)cn2c(=O)cc(CN3CCN(c4ccccc4)CC3)nc2c1Cl`?
MARV entry inh: 0%[46.1 µM]; SARS PLP yeast: -3%; RE007 growth inh: -8%; StopGo reporter: inconclusive; Lassa entry inh: -5%

What do the screens show for `CCN1CCN(c2cc(C)c3cc(NC(=O)c4cc(Cl)ccc4OC)ccc3n2)CC1`?
MARV entry inh: inconclusive; Cruzain Triton: -14%; Cruzain inh noDet: -8%; StopGo reporter: -13%; Lassa entry inh: inconclusive

Results for O=c1c(-c2ccc(F)cc2)coc2cc(O)ccc12 ?
MARV entry inh: -21%; NS1 function inh: -83%; SARS PLP yeast: -14%; Cruzain Triton: -8.1%; RE007 growth inh: -28%; Cruzain inh noDet: 0%; Lassa entry inh: inconclusive

What do the screens show for `Cc1ccc(C)c(NC(=O)Cn2c(=O)n(-c3ccccc3C)c(=O)c3c2c2cc(C)ccc2n3C)c1`?
Cruzain Triton: 5.8%; Cruzain inh noDet: 17%; StopGo reporter: 3%; Lassa entry inh: 23%[46.1 µM]

How did COc1cc(N)c2ncccc2c1Cl do in these assays?
MARV entry inh: -2%[46.1 µM]; RE007 growth inh: -6%; StopGo reporter: -9%; Lassa entry inh: 0%[46.1 µM]

How did CCC(=O)N1COC[C@@H]1Cc1ccccc1 do in these assays?
MARV entry inh: 10%; NS1 function inh: -13%; SARS PLP yeast: 7%; Cruzain Triton: -1.7%; RE007 growth inh: -21%; Cruzain inh noDet: 11%; StopGo reporter: inconclusive; Lassa entry inh: 0%

What do the screens show for `O=C(Nc1ccc(F)c(Cl)c1)N1CC=C(c2c[nH]c3ccccc23)CC1`?
Cruzain Triton: -14%; Cruzain inh noDet: 0%; StopGo reporter: -15%; Lassa entry inh: -22%[46.1 µM]

What do the screens show for `COc1ccc(S(=O)(=O)NCc2ccccn2)cc1NC(=O)c1ccccc1F`?
MARV entry inh: inconclusive; NS1 function inh: 9%; SARS PLP yeast: -1%; RE007 growth inh: 3%; StopGo reporter: 50%[activator]; Lassa entry inh: inconclusive

What do the screens show for `CN(C)S(=O)(=O)c1ccc(C(=O)N2CCN(S(=O)(=O)c3cccs3)CC2)cc1`?
MARV entry inh: -24%[46.1 µM]; SARS PLP yeast: 4%; RE007 growth inh: 4%; StopGo reporter: -20%; Lassa entry inh: 3%

How did COc1ccc(NC(=O)Nc2ccc(N3CCCC3=O)cc2)cc1OC do in these assays?
MARV entry inh: 24%; NS1 function inh: 5%; SARS PLP yeast: 1%; Cruzain Triton: 0.9%; RE007 growth inh: 4%; Cruzain inh noDet: 10%; Lassa entry inh: -5%

Results for CC(=O)Nc1ccc2nc(NC(=O)c3cccs3)sc2c1 ?
MARV entry inh: inconclusive; NS1 function inh: 7%; SARS PLP yeast: 2%; RE007 growth inh: -23%; StopGo reporter: -1%; Lassa entry inh: inconclusive

How did C/C(=N\NC(=O)Cc1ccc(Cl)cc1)c1ccccn1 do in these assays?
MARV entry inh: 3.3µM*; NS1 function inh: -106%; SARS PLP yeast: 1%; Cruzain Triton: 5.5%; RE007 growth inh: inconclusive; Cruzain inh noDet: 0%; Lassa entry inh: 8.2µM*

Results for COc1ccc(CNC(=O)Cn2nnc(-c3ccc(S(C)(=O)=O)cc3)n2)cc1 ?
MARV entry inh: inconclusive; Cruzain Triton: 1.1%; Cruzain inh noDet: -2%; StopGo reporter: -6%; Lassa entry inh: -2%[46.1 µM]

How did CC(C)c1ccc(OCC(=O)N2CCN(CCc3ccncc3)CC2)cc1 do in these assays?
MARV entry inh: 25%[46.1 µM]; Cruzain Triton: -0.6%; Cruzain inh noDet: 14%; StopGo reporter: 38%[activator]; Lassa entry inh: inconclusive

Results for COc1cc(-c2nnc(SCC(=O)N3CCCc4ccccc43)o2)cc(OC)c1OC ?
MARV entry inh: -15%[46.1 µM]; Cruzain Triton: -6.2%; Cruzain inh noDet: inconclusive; StopGo reporter: -22%; Lassa entry inh: inconclusive

How did COc1ccccc1OCc1ccc(C(=O)Nc2ccc(Cl)cn2)o1 do in these assays?
MARV entry inh: inconclusive; NS1 function inh: 2%; SARS PLP yeast: 0%; RE007 growth inh: 13%; StopGo reporter: -13%; Lassa entry inh: 3%

What do the screens show for `O=C(CSc1nc2c(c(=O)n1-c1ccc(Cl)cc1)SCC2)NCC1CCCO1` (configuration not stated)?
MARV entry inh: inconclusive; NS1 function inh: 3%; Cruzain Triton: -2.2%; RE007 growth inh: 11%; Cruzain inh noDet: 4%; StopGo reporter: -12%; Lassa entry inh: inconclusive

What do the screens show for `COC(=O)c1cccc(NS(=O)(=O)c2ccc(OC)c(OC)c2)c1C`?
MARV entry inh: inconclusive; NS1 function inh: 0%; SARS PLP yeast: -7%; Cruzain Triton: 1.3%; RE007 growth inh: 7%; Cruzain inh noDet: -7%; StopGo reporter: -21%; Lassa entry inh: -8%[14.3 µM]

Results for COC(=O)c1ccc(/C=N/Nc2nc(N3CCCCC3)nc(N3CCCCC3)n2)cc1 ?
MARV entry inh: -4%[46.1 µM]; SARS PLP yeast: -1%; RE007 growth inh: 5%; StopGo reporter: -19%; Lassa entry inh: 12%

What do the screens show for `COc1cccc(C(=O)CSc2nnc(-c3cc(OC)cc(OC)c3)o2)c1`?
MARV entry inh: inconclusive; NS1 function inh: -1%; SARS PLP yeast: -1%; Cruzain Triton: 4.0%; RE007 growth inh: -11%; Cruzain inh noDet: 4%; Lassa entry inh: inconclusive

How did Cc1cc(C)n(C(=O)CSc2nnc(SCC(=O)n3nc(C)cc3C)s2)n1 do in these assays?
MARV entry inh: -12%; NS1 function inh: 7%; SARS PLP yeast: -1%; Cruzain Triton: 3.8%; RE007 growth inh: 11%; Cruzain inh noDet: -3%; StopGo reporter: -8%; Lassa entry inh: 19%

What do the screens show for `COc1ccc(Cl)cc1NC(=O)CSc1nnc(C2CC2)n1C`?
MARV entry inh: -28%[46.1 µM]; NS1 function inh: 15%; SARS PLP yeast: 1%; RE007 growth inh: 8%; StopGo reporter: -2%; Lassa entry inh: 24%

What do the screens show for `Cc1cccc(N2CCN(C(=O)Cn3ncc4c5ccccc5n(C)c4c3=O)CC2C)c1` (configuration not stated)?
MARV entry inh: -5%[46.1 µM]; Cruzain Triton: -2.6%; Cruzain inh noDet: 2%; StopGo reporter: -16%; Lassa entry inh: 8%[46.1 µM]

How did CC(c1ccccc1)C1CC(=O)N(c2ccc(C(=O)O)cc2)C1=O (configuration not stated) do in these assays?
MARV entry inh: 6%; NS1 function inh: 5%; SARS PLP yeast: 9%; Cruzain Triton: -1.5%; RE007 growth inh: 4%; Cruzain inh noDet: -14%; StopGo reporter: 9%; Lassa entry inh: 29%

Results for Cc1ccc(-n2c(CCc3ccccc3)n[nH]c2=S)cc1C ?
MARV entry inh: -5%; NS1 function inh: inconclusive; SARS PLP yeast: -2%; RE007 growth inh: 10%; StopGo reporter: -24%; Lassa entry inh: inconclusive

What do the screens show for `Fc1ccc(CNCc2ccccc2Cl)cc1`?
MARV entry inh: -13%[46.1 µM]; SARS PLP yeast: 0%; RE007 growth inh: 17%; StopGo reporter: 12%; Lassa entry inh: 8%[46.1 µM]

What do the screens show for `CCOC(=O)N1CCc2c(sc3c2c(=O)n(CCc2ccccc2)c(=O)n3Cc2c(F)cccc2Cl)C1`?
MARV entry inh: -14%[46.1 µM]; Cruzain Triton: 0.6%; Cruzain inh noDet: 0%; StopGo reporter: 0%; Lassa entry inh: 12%[46.1 µM]

How did Cc1ccc(-c2nc3cnccn3c2Nc2ccccc2)o1 do in these assays?
NS1 function inh: -79%; SARS PLP yeast: -9%; Cruzain Triton: -2.2%; RE007 growth inh: 15%; Cruzain inh noDet: -7%; StopGo reporter: -13%

How did O=C1NC(c2ccc(Br)cc2)Nc2sc3c(c21)CCC3 (configuration not stated) do in these assays?
MARV entry inh: inconclusive; NS1 function inh: 0%; SARS PLP yeast: -3%; Cruzain Triton: -13%; RE007 growth inh: 14%; Cruzain inh noDet: -10%; StopGo reporter: 1%; Lassa entry inh: 27%

Not a hit list; about 4.7% have a hit in one of these screens.
